High-throughput results from PubChem.
Rango complex inh: prevents formation of the Rango-importin beta complex; Q14974; Rango CFP/YFP FRET sensor + importin beta, 45 min; Potency, µM (series often up to 92.2 µM), without a hit: at the top dose inhibition of complex formation; 340,000 tested, 0.031% active; AID 540263; active = rising FRET ratio curve, often small or poorly fitted; inconclusive = mostly compound fluorescence or quenching in the first reads; inactive = flat curves in all reads;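 also: potency is read from the fitted curve at half-maximal effect; 0% = DMSO wells and 100% = buffer wells lacking importin beta; nearly all actives have a fitted effect of over 15% in size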
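Inhibition scored from the CFP 486 nm/YFP 530 nm FRET ratio 45 min after adding 0.125 microM importin beta to 50 nM Rango biosensor preincubated 5 min with compound (room temperature, PBS with DTT, Tween-20, BSA). No-importin wells as positive control.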
GLA inh pH 4.5: inhibitors of human alpha-galactosidase A at pH 4.5 | activity change, negative = inhibition, % at 105 µM | P06280 | purified enzyme, 4-MU-alpha-Gal fluorescence, pH 4.5 | 230,000 tested, under 10 active; inconclusive = small, poorly fitted or top-dose-only inhibition, or a rising curve; inactive = flat fitted curve, though single readings scatter; no compound was filed as active;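 also: 0% = full activity with enzyme and -100% = basal without enzyme; dose as in the result columns while the protocol names 77 µM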
Target sequence (P06280 whole entry, looked up): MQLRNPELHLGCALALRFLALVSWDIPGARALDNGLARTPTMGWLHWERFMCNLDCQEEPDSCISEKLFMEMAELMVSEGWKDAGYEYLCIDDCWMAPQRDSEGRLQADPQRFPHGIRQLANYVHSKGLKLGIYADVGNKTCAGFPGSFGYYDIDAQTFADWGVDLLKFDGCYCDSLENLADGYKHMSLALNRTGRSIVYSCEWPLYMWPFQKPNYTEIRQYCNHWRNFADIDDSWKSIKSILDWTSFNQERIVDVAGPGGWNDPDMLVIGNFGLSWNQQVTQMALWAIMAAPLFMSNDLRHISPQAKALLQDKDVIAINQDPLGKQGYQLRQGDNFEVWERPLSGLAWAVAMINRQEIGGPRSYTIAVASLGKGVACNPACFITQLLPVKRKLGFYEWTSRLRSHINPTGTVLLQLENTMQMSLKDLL
miR-21 FLuc: raises the signal of a miR-21 reporter; Potency, µM (titrated, usually from 38.3 µM), without a hit: at the highest dose reporter change, positive = more light; 340,000 tested, under 10 active; HeLa miR-21 FLuc reporter, luciferase, 48 h; AID 2288; active = well fitted rising curve with a large enough effect; inconclusive = small, poorly fitted or top-dose-only effect; inactive = no such curve, though single readings can be large or run the other way;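 also: % of control where 0% means no effect; miR-21 action dims this reporter so a rising signal means less miR-21 action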
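HeLa miR-21-FLuc reporter line, endogenous miR-21; 2000 cells/well in DMEM/10% FBS; compound titration up to ~40uM final, 48 h, 37 degree Celsius; luciferase detection reagent, 15 min lysis, CCD luminescence.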
Rango release inh: inhibition of RanGTP-driven Rango-importin beta dissociation | Potency, µM (highest dose often 46.1 µM), without a hit: at the highest dose activity change, negative = inhibition | 340,000 tested, 0.071% active | Biochemical FRET Rango-importin beta, RanGTP-induced dissociation; active means falling FRET ratio curve, often poorly fitted, with flat reads before Ran was added; inconclusive means other falling curves, or compound fluorescence or quenching; inactive means flat or rising ratio curve;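 also: potency is read from the fitted curve at half-maximal effect; % of control where 0% means no effect; nearly all actives have a fitted effect of over 45% in size; -100% = wells without RanGTP and RCC1; the record marks most hits as doubtful in a second field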
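Rango/importin beta premix (0.1/0.25 uM final), PBS + 1 mM DTT + 0.02% Tween-20 + 0.1% BSA; cpd 5 min RT; FRET pre-read; + RanGTP-RCC1 (0.6 uM Ran, 2 mM GTP, 0.2 uM RCC1); 45 min RT; FRET post-read, ex 430, em 486/530 nm.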
An asterisk follows results filed as active; ? = inconclusive; / = not tested or not shown; & = joins results of further samples.

SMILES	Rango complex inh	GLA inh pH 4.5	miR-21 FLuc	Rango release inh
COc1ccc2[nH]c(C(=O)N3CCc4ccccc4C3)c(C)c2c1	-1.4%	/	-3.9%	0.3%
Cc1ccc(-c2[nH][nH]c(=O)c(=O)c2N=Nc2ccccc2)cc1	-0.2%	-0.2	-8.3%	-0.3%
CCN1CCN(C(=O)CN(CCc2ccccc2)S(C)(=O)=O)CC1	-1.1%	6.3	-0.9%	-6.7%
Cc1cccc(OCCCSc2nc3ccc(C)cc3[nH]2)c1	-1.1%	-8.8	-14.4%	0.3%
COc1ccc(CCNC(=O)c2cccc(S(=O)(=O)N3CCOCC3)c2)cc1OC	1.3%	/	/	-1.4%
CC(C)(C)N(NC(=O)c1ccccc1)C(=O)c1cccc(C(=O)N(NC(=O)c2ccccc2)C(C)(C)C)c1	2.7%	-1.7	-2.7%	?
COc1cccc(NC(=O)c2nc(SC)ncc2Cl)c1	-0.8%	/	-1.5%	-2.4%
O=C(CSc1nc2ccsc2c(=O)n1NC(=O)c1ccccc1)NCc1ccco1	0.5%	7.5	-35.4%	11.1%
C=CCSc1ncnc2sc(C)c(C)c12	2.8%	-3.6	-2.2%	17.3%
CC1CCN(CCCN2C(=O)C3C(C(=O)Nc4cccc(Cl)c4)C4C=CC3(O4)C2C(=O)NC2CCCCC2)CC1 (stereo unspecified)	4.8%	/	-1.6%	7.8%
CN(CC(=O)Nc1ccc(F)c(F)c1)S(=O)(=O)c1cccc2cccnc12	-4.6%	/	3.1%	-0.7%
Cc1ccnc(NC(=O)c2ccc(OCC3CCCO3)cc2)c1 (stereo unspecified)	-5.1%	/	/	9.3%
CCN(CC)CCN1C(=O)C(O)=C(C(=O)c2cccs2)C1c1ccccn1 (stereo unspecified)	?	-5.6	-23.8%	?
CC(C)(O)[C@@H]1CC[C@@](C)(C2CC[C@]3(C)C2[C@H](O)CC2[C@@]4(C)CC[C@H](O)C(C)(C)C4[C@@H](O[C@H]4O[C@@H](CO)[C@H](O)[C@@H](O)[C@@H]4O[C@@H]4O[C@H](CO)[C@@H](O)[C@H](O)[C@H]4O)C[C@]23C)O1 (stereo in doubt)	1.3%	/	/	-5.2%
Cc1ccc(OCC(O)Cn2c(=N)n(Cc3ccccc3)c3ccccc32)cc1 (stereo unspecified)	-0.2%	-2.4	?	6.1%
COc1cc(OC)nc(NC(=O)C(C)C)n1	1.5%	0.5	-6.4%	-6.3%
COc1ccccc1CC(=O)OCC(=O)N1CCN(c2ccc(F)cc2)CC1	5.1%	/	/	-22.5%
CCc1nc(SCC(N)=O)c2c(=O)n(C)c(=O)n(C)c2n1	0.5%	-5.2	4.0%	-17.2%
COc1ccc(CCNc2nc(Cl)nc(NC(C)(C)CO)n2)cc1OC	3.8%	/	-1.5%	2.8%
Cn1nc(C(=O)N2CCN(c3ccccc3)CC2)c2c1-c1ccccc1S(=O)(=O)C2	-0.8%	/	-3.0%&11.5%	-4.3%
CC(=O)c1cccc(NC(=O)NNC(=O)c2ccc3ccccc3c2)c1	-3.4%	/	-0.1%	-3.8%
Cc1cc(NC(=O)C(C)C)n(-c2nc3ccccc3s2)n1	0.4%	-6.6	-38.9%	-2.5%
O=C(NCCc1ccccc1)c1ccc2c(c1)S(=O)(=O)N=C1CCCCCN12	-3.0%	/	/	-8.7%
O=c1[nH]cnc(O)c1C(c1ccc2c(c1)OCO2)c1c(O)nc[nH]c1=O	-1.3%	7.4	0.8%	0.9%
Cc1ccccc1CN1CCNC(=O)C1CC(=O)NCCN1CCCCC1=O (stereo unspecified)	-1.7%	/	1.2%	-2.3%
Cc1ccc(Sc2ccc([N+](=O)[O-])cc2[N+](=O)[O-])nc1	0.1%	0.9	16.4%	7.4%
COc1ccc(Cc2nnc(SC(C)C(=O)Nc3ccc(F)cc3Cl)o2)cc1 (stereo unspecified)	-0.1%	/	/	-8.4%
O=C(c1cccc(C(F)(F)F)c1)C1CCCN(Cc2ccc(OCCO)cc2)C1 (stereo unspecified)	-4.4%	-2.3	5.7%	-3.4%
CN1CCc2cc(Cl)c(O)cc2[C@@H](c2ccccc2)C1	3.7%	8.5&5.5	1.2%	5.4%
CC(=O)c1c(N2CCN(C)CC2)[nH]c(-c2ccccc2)nc1=S	-0.1%	-2.8	-1.9%	-9.3%
CN1CCN(CC#CCC(O)(c2ccccc2)C2CCCC2)CC1 (stereo unspecified)	-3.4%	4.6	-9.8%	-11.3%
Cn1c(=O)c2sccc2n2c(CCCC(=O)NCc3ccco3)nnc12	-1.1%	/	2.8%	4.8%
O=S(=O)(c1ccc(Br)cc1Cl)N1CCCN(c2ccc(C(F)(F)F)cn2)CC1	3.1%	/	/	-11.6%
COc1ccc(CNC(=O)CC2C[C@H](C(=O)N3CCOCC3)[C@@]3(CCC4CCCC4)c4[nH]c5ccccc5c4CCN3C2=O)cc1OC (stereo partly specified)	1.2%	/	/	-2.8%
CCCCCCNS(=O)(=O)c1ccc(OC)c(OC)c1	-3.6%	-12.6	-10.4%	-8.3%
O=C(N/N=C(\Cc1ncc[nH]1)c1ccccc1)c1cccnc1	1.9%	4.2	18.8%	-0.9%
CCOc1ccc(C(=O)N2CCC(C(=O)c3ccc4c(c3)OCCO4)CC2)cc1	0.0%	-7.3	1.4%	-5.2%
COc1cccc(CNC(=O)C2CC(=O)N(c3ccc4c(c3)OCCO4)C2)c1 (stereo unspecified)	2.3%	/	/	4.5%
CCOc1ccc(C(=O)C(CCC(CN(C)C)C(=O)c2ccc(OCC)cc2)CN(C)C)cc1 (stereo unspecified)	6.3%	-15.8	?	-0.3%
Cc1cc(=O)[nH]c(N2CCN(C(=O)c3ccco3)CC2)n1	0.8%	/	-1.8%	-9.3%
COc1cc2c(cc1OC)C(c1cc3cc(OC)c(OC)cc3[nH]c1=O)N(C(=O)C1CC1)CC2 (stereo unspecified)	?	4.4	-16.0%	-15.1%
COc1cc(/C=N/NC(=O)C(C)Nc2n[nH]c(=O)[nH]c2=O)ccc1O (stereo unspecified)	3.5%	-5.6	-1.4%	-4.6%
COc1ccc(CCNC(=O)C/C(C)=N/NC(=O)C(c2ccccc2)c2ccccc2)cc1OC	0.1%	-0.2	2.2%	2.8%
COc1cccc(OCC(O)CN2C(C)CCCC2C)c1 (stereo unspecified)	0.7%	3.9	-6.9%	23.2%
O=C(NCC1CCCO1)c1ccc(CS(=O)(=O)c2c(Cl)cccc2Cl)o1 (stereo unspecified)	1.4%	-1.1	-0.6%	-6.8%
CC1C(=O)N2CCCc3cc(S(=O)(=O)N(C)c4ccccc4)cc1c32 (stereo unspecified)	?	/	1.0%	?
O=C(Nc1nnc(-c2ccccn2)o1)c1ccc(Br)cc1	-0.7%	3.9	-29.7%	4.7%
CCOCCCNC(=O)C1CCN(S(=O)(=O)c2c(C)noc2/C=C\c2ccc(OC)cc2)CC1	0.3%	/	/	0.3%
CC(NC(=O)c1cc(=O)[nH]c2ccccc12)c1ccccc1 (stereo unspecified)	6.6%	-3.3	-2.9%	-6.7%
Cc1ccc(S(=O)(=O)N2CCOCC2)cc1NC(=O)CSc1n[nH]c(N)n1	2.6%	-8.3	0.3%	2.8%

A different layout for part of the listing above.
canonical_smiles | Rango complex inh | GLA inh pH 4.5 | miR-21 FLuc | Rango release inh
CCOCCCNC(=O)C1CCN(S(=O)(=O)c2c(C)noc2/C=C\c2ccc(OC)cc2)CC1 | 0.3% | / | / | 0.3%
CC(NC(=O)c1cc(=O)[nH]c2ccccc12)c1ccccc1 (stereo unspecified) | 6.6% | -3.3 | -2.9% | -6.7%

Other structures:
SMILES	Rango complex inh	GLA inh pH 4.5	miR-21 FLuc	Rango release inh
Cc1nnc(N2CCCCC2)c2ccccc12	5.5%	-0.1	-6.9%	-2.2%
COc1cccc(CN2CCNC(=O)C2CC(=O)N(Cc2cnn(C)c2)C(C)C)c1 (stereo unspecified)	-4.7%	4.9	0.6%	4.4%
O=C(CSc1n[nH]c(-c2cccs2)n1)NC1CCS(=O)(=O)C1 (stereo unspecified)	9.4%	/	-1.7%	3.7%
O=C(O)c1ccc(CN2CCOCC2)o1	?	7.8	-2.4%	1.0%
Cc1cc(C)cc(NC(=S)N2CCC(NC(=O)c3ccc(F)cc3)CC2)c1	0.3%	/	1.4%	0.7%
COc1cccc(Nc2c(Nc3cccc(OC)c3)c(=O)c2=O)c1	-0.6%	/	0.5%	1.1%
COc1ccc(-c2cn3cc(C)ccc3n2)cc1F	-3.3%	6.3	18.2%	3.7%
COc1ccc(NC2CCCN(C(=O)c3cccc(C)n3)C2)cc1OC (stereo unspecified)	?	/	2.0%	14.1%
CSc1ccc(CN(C)C(=O)CNC(=O)c2ccc3c(c2)OCO3)cc1	-0.6%	/	/	2.2%
COc1ccc(C(C(=O)NC2CCCC2)N(C(=O)c2snc(-c3ccc(F)cc3)c2N)c2cccc(F)c2)cc1 (stereo unspecified)	?	9.7	0.9%	-11.0%
COc1ccc(/C=C(/C(=O)c2cccs2)N2C=CC=CC2=C(C#N)C#N)cc1	?	-8.8	?	?
COC(=O)c1ccccc1N=Nc1c(N)n[nH]c1N	1.9%	-19.4	-2.5%	-9.1%
CCNc1nc(NCc2ccccc2)nc(SCC(N)=O)n1	4.6%	-7.1	-0.8%	3.6%
O=Nc1c(O)n(Cc2ccc(Cl)cc2)c2ccccc12	2.2%	-18.9	-5.9%	15.2%
CCOC(=O)CC(=O)NC(CC(=O)OC)c1ccc(C(C)C)cc1 (stereo unspecified)	6.8%	-1.6	-5.7%	-2.9%
CC(=O)OCC(=O)[C@@]12OC3(CCCC3)O[C@@H]1C[C@H]1[C@@H]3CCC4=CC(=O)C=C[C@]4(C)[C@@]3(F)[C@@H](O)C[C@@]12C	2.5%	-3.9	-34.4%	13.0%
COc1ccc(-c2csc(NC(=O)c3ccccc3NS(=O)(=O)c3ccc(F)c(F)c3)n2)cc1	0.3%	-26.2	?	-13.6%
CCN1CCN(C(c2cccs2)C(C)NC(=S)Nc2cccc(C)c2C)CC1 (stereo unspecified)	-1.0%	5.1	0.4%	-14.5%
CN(C)C(=O)N1CCN(c2nc(-c3ccccc3)cs2)CC1	1.0%	/	-21.5%	0.5%
O=C(Nc1cccc(-c2cn3cccnc3n2)c1)c1cccs1	-1.0%	4.1	-6.1%	-3.7%

A few values from the entries so far.
CCNc1nc(NCc2ccccc2)nc(SCC(N)=O)n1 in Rango complex inh: 4.6%
COC(=O)c1ccccc1N=Nc1c(N)n[nH]c1N in Rango complex inh: 1.9%
CC(=O)OCC(=O)[C@@]12OC3(CCCC3)O[C@@H]1C[C@H]1[C@@H]3CCC4=CC(=O)C=C[C@]4(C)[C@@]3(F)[C@@H](O)C[C@@]12C in miR-21 FLuc: -34.4%
O=Nc1c(O)n(Cc2ccc(Cl)cc2)c2ccccc12 in Rango complex inh: 2.2%
CN(C)C(=O)N1CCN(c2nc(-c3ccccc3)cs2)CC1 in Rango release inh: 0.5%
COc1ccc(-c2csc(NC(=O)c3ccccc3NS(=O)(=O)c3ccc(F)c(F)c3)n2)cc1 in GLA inh pH 4.5: -26.2

Continued.
SMILES	Rango complex inh	GLA inh pH 4.5	miR-21 FLuc	Rango release inh
N#Cc1ccsc1NC(=O)C1CCN(S(=O)(=O)c2cccs2)CC1	4.0%	/	/	0.6%
CC(Oc1ccc(Br)cc1)C(=O)Nc1ccc(S(=O)(=O)Nc2nccs2)cc1 (stereo unspecified)	5.9%	/	1.4%	-22.3%
C=CCOc1nc2c(c(=O)n(Cc3ccc(Cl)cc3)c(=O)n2C)n1C	1.9%	0.5	-0.2%	5.0%
Cc1ccc(-c2nc(CN(Cc3c(C)nn(C)c3C)C(C)C)c(C)o2)o1	4.4%	-3.1	-6.4%	-16.0%
CCOc1ccc(OCC)c(-c2c(=O)n(OCc3ccccc3Br)c3ccccc3[n+]2[O-])c1	?	-5.0	2.3%	-13.2%
COc1cc(CC(=O)Nc2nc(C)cs2)cc(OC)c1OC	-0.5%	1.5	6.4%	0.3%
Cc1cc(CN(C)C(=O)c2ccc(OC3CCN(Cc4ccccn4)CC3)cc2)on1	5.6%	/	-3.1%	-13.9%
COc1ccc(N2CCN(C(=O)CCNS(=O)(=O)c3ccccc3)CC2)cc1	5.1%	-18.9	1.8%	-10.7%
O=C(Nc1nccs1)c1ccc(COc2ccccc2Br)o1	3.1%	4.3	-0.4%	-6.1%

Not all compounds are listed; count on the stated rates, not on these rows.
